Screens (PubChem)
Beta cell apopt: blocks beta cell apoptosis | INS-1E cytokine-induced death, ATP luminescence, 48 h; percent of positive-control rescue, neutral wells zero | protection from apoptosis, % (test concentration not listed) | hit rate 0.8% among 300,000 | AID 435005;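 active means all replicates at 75% or more, or half of them and the mean; inconclusive means half reach 75% but not the mean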;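 further: 0% = cytokine-treated negative control wells and 100% = positive control rescue; higher means more ATP so stronger rescue from cytokine killing; wells of about 40 µL received 100 nL stock; the first replicate is given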
Bfl-1 A1 inh: inhibitors of the anti-apoptotic protein A1, read as caspase activation; MEF A1-2A-BIM cells, Caspase-Glo 3/7 luminescence, 3 h; percent of clofoctol response, vehicle zero; caspase activation, % (concentration not given with the values); hit rate 0.066% among 330,000;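 active means over half of replicate activation scores above 10%, or exactly half above 10 with the replicate mean above 10; inconclusive means replicate mean below 10 yet half the replicates above 10; inactive means over half of replicates below 10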;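 further: wells of about 30 µL received 50 nL stock; many hits fall short of the cut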
Calb FLC: affects C. albicans growth with fluconazole | C. albicans CaCi-2 (fluconazole-resistant clinical isolate) + fluconazole, Alamar Blue growth, 48 h | growth inhibition, % (concentration not given with the values) | hit rate 0.57% among 300,000 | AID 1979;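 active means most replicates above 75%; inconclusive means exactly half above 75%; inactive means most below 75%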;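 further: all wells also contain fluconazole at 8 µg/ml as a sub-toxic cotreatment; 0% = median of DMSO wells and 100% = median of geldanamycin control wells; wells of about 8 µL received 7.5 nL stock; the first replicate is given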
Ecoli rRNA inh: selective bacterial rRNA inhibition in E. coli; hit rate 1.6% among 350,000; GFP signal change (wild-type ribosome), % (no concentration beside the values); E. coli WT GFP vs humanized-ribosome RFP mutants, fluorescence, 24 h; active compounds read low; DMSO median 0, no signal -100;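 active means significant combined selectivity score with lowered wild-type GFP, culture density cut under 30%, mutant RFP and density less affected; inactive means any of these conditions unmet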; further: one replicate is shown; some compounds called inactive have numbers as strong as hits
RanGTP-Imp inh: inhibitors of RanGTP-importin-beta interaction, primary screen, biochemical, FRET, CFP-Ran, YFP-importin-beta, homogeneous; cell-free CFP-Ran/YFP-importin-beta FRET ratio; inhibition, % (concentration not given with the values); hit rate 1.1% among 300,000; AID 2216;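 active means most replicates above 15%; inconclusive means exactly half above 15%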;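 further: 0% = DMSO wells and 100% = Ran loaded with GDP instead of GTP; wells of about 40 µL received 100 nL stock; the first replicate is given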
AF4-AF9 inh: blocks AF4 peptide binding to human AF9; inhibition, % at 10 µM; AID 651704; hit rate 0.47% among 350,000; AlphaScreen, biotin-AF4 peptide binding to FLAG-AF9;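 active means every replicate reaching a set inhibition limit, whatever the replicate mean, cut at about 25% in these data; inconclusive means mean inhibition reaches that limit but some replicates miss it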;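 further: 0% = plate neutral control median and 100% = total signal loss; the record names both 10 and 1 µM as test concentration; the first replicate is given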
Target sequence (P42568 whole entry, looked up): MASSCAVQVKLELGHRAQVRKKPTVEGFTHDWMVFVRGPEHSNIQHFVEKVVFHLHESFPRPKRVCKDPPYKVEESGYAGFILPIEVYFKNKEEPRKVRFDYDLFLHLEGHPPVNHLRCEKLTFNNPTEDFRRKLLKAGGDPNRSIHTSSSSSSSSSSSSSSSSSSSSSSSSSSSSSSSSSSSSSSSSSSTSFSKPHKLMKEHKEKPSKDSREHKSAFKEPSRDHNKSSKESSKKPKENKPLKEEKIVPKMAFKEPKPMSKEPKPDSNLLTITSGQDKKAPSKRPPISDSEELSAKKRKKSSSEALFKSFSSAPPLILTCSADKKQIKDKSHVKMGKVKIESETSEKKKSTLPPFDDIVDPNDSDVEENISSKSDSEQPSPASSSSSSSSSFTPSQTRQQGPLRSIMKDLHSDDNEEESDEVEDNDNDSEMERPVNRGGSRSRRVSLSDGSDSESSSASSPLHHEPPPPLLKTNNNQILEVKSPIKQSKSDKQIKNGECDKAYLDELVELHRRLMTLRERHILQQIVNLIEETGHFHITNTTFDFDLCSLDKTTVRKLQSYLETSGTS
T cruzi repl: T. cruzi replication inhibition; hit rate 1.4% among 300,000; inhibition, % (no concentration beside the values); T. cruzi beta-gal in NIH3T3, luminescence, 90 h;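 active means mean inhibition across valid replicates above about 55%, limit read from the data; inconclusive means mean below that limit but half or more replicates reach it; inactive means mean below it, under half of replicates reach it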;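 further: signal also drops with host cell toxicity which is not excluded here; 0% = plate median of DMSO wells and 100% = zero luminescence signal; higher percent means less beta-gal luminescence so fewer parasites; stock transfer was 50 nL into about 50 µL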
Vif A3G: inhibitors of Vif binding to APOBEC3G peptide, primary screen, biochemical, TR-FRET, GST-Vif 1-94, biotin-A3G peptide, dose response retest (AID 1117319) | TR-FRET GST-Vif / biotin-A3G peptide binding; higher % means a stronger effect; test concentration not given here; strong numbers were not always called active | one-dose inhibition, %; IC50 in µM for titrated hits | hit rate 0.57% among 260,000;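 active means above the screen mean plus three standard deviations and confirmed in dose response; inconclusive means results disagree or hit not tested in dose response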;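 further: Vif residues 1-94 fused to GST binding biotinylated APOBEC3G peptide 110-148; 0% = full assay without inhibitor and 100% = GST in place of GST-Vif; retest series ran down from 100 µM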
Ecoli rRNA inh OD600: recorded beside Ecoli rRNA inh, whose call it bears; OD600 change, %; measured here: OD600 growth;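 optical density of the mix in the first replicate; 0 = DMSO median and -100 = no signal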
Ecoli rRNA inh RFP: second read-out of Ecoli rRNA inh, no call of its own (marks repeat the call); RFP signal change, %; measured here: RFP humanized mutant strains;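 first replicate; 0 = DMSO median and -100 = no signal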
The depositor's hits bear a star; ? = inconclusive; · = no result given; & = joins results of further samples. These rows are one share of the data; count on the stated rates, not on these rows.

SMILES	Beta cell apopt	Bfl-1 A1 inh	Calb FLC	Ecoli rRNA inh	Ecoli rRNA inh OD600	Ecoli rRNA inh RFP	RanGTP-Imp inh	AF4-AF9 inh	T cruzi repl	Vif A3G
c1nc(NC2CCCCC2)c2[nH]cnc2n1	-5	0.3	32	·	·	·	-2.1	·	0	-8%
Cc1ccc(S(=O)(=O)NCC2CCC(C(=O)NCc3cccs3)CC2)cc1 (centres undefined)	0	-0.7	-21	13	2	-5.9	-2.4	-0.9	13	-4%
CC(C)(C)c1ccc(C(=O)NNC(=O)c2ccccc2Br)cc1	1	-0.3	-2	·	·	·	0.5	·	-15	1%
CCOC(=O)c1c(C)[nH]c(C(=O)NNC(=O)c2ccc(Br)cc2)c1C	-5	1.2	·	-4	-24	1.9	·	-15	·	7%
CCn1c(-c2ccccc2Cl)nn(CC(=O)NCCc2ccccc2)c1=S	5	-0.7	-8	·	·	·	-3.3	·	1	?
CCOc1cc(CNc2ncn[nH]2)ccc1OCC(=O)NC(C)(C)C	3	-0.2	10	-5	-6	-3.3	-2.7	-2.6	-4	-5%
COc1ccc(S(=O)(=O)NC(CCSC)C(=O)NC2CCCCC2)cc1 (centres undefined)	-4	0.4	-27	5	5	-3.0	?	0.0	-2	·
c1ccc(-c2c3ccccc3nc3[nH]c4ccccc4c23)cc1	3	1.1	11	·	·	·	4.5	·	13	18%
Cc1nn2c(NCCCN(C)C)c3c(nc2c1-c1ccccc1)CCCC3	-4	0.2	-1	-18	-13	-0.3	15	17	49	·
Cc1ccccc1OCCNC(=O)c1ccc2ccccc2n1	-3	1.0	0	·	·	·	-7.9	·	6	6%
O=C(NCc1ccco1)c1cccc(S(=O)(=O)N2CCCC2)c1	·	·	0	4	6	-2.6	-2.6	2.1	1	·
O=c1nc(N(c2ccccc2)c2ccccc2)[nH]c(=O)[nH]1	1	-0.4	-18	·	·	·	2.8	·	-7	2%
CN(C)C(=O)CCC(=O)N(C)CC1CCCN(CCc2ccc(F)cc2)C1 (centres undefined)	·	0.6	18	22	7	2.0	1.5	-2.2	-8	·
O=C(Oc1ccc(Cl)c2cccnc12)N1CCCCCC1	5	-0.3	0	-9	-21	1.5	?	·	7	3%
CCOC(=O)C1=C(N)Oc2c(oc(CO)cc2=O)C1c1c(F)cccc1Cl (centres undefined)	2	0.9	1	·	·	·	-4.0	·	9	0%
CCCC(=O)N1CCN(c2ccc([N+](=O)[O-])cc2Cl)CC1	-3	1.7	14	·	·	·	2.4	·	-2	-3%
O=C(N/N=C/c1ccccc1C(=O)O)c1ccccc1Br	4	-0.5	15	18	3	4.7	2.7	-1.9	-15	·
CC(=O)c1cccc(NC(=O)COC(=O)CCNS(=O)(=O)c2ccccc2)c1	9	0.6	·	2	0	0.7	·	0.1	·	-2%
CC1CCCCN1S(=O)(=O)c1ccc(S(=O)(=O)N2CCCC2)cc1 (centres undefined)	3	1.2	-4	16	10	0.2	-1.9	0.2	9	0%
O=S(=O)(NCCc1ccncc1)c1ccccc1	-6	-0.2	0	·	·	·	-2.0	·	-8	·
COCCNC(=O)c1ccccc1NC(=O)Cc1ccccc1[N+](=O)[O-]	3	0.7	-5	13	-5	0.4	-2.8	-2.5	-12	·
CCn1c(C)nc2cc(C(=O)NNC(=O)c3ccc(Cl)nc3)ccc21	-5	-0.2	0	4	2	-13	-0.3	-14	-1	·
CC(C)(C)[C@H]1COC(=O)[C@@H](Cc2ccc(F)cc2)C/C=C\C[C@@H](CC(=O)N[C@H](CO)Cc2ccccc2)C(=O)N1	-4	0.6	·	7	-2	-1.5	·	-1.3	·	·
Cc1ccc(C(=O)N2CCN(c3ccc(C(F)(F)F)cn3)CC2)c(C)c1	-7	-1.2	13	·	·	·	?	·	15	5%
CN(C)Cc1cccc([N+](=O)[O-])c1O	-13	-0.9	-7	6	-5	0.8	-2.0	-0.2	-2	-2%
COc1cc(CNCC(O)c2ccccc2)ccc1OCc1ccc(Cl)nc1 (centres undefined)	4	-0.4	15	·	·	·	0.8	·	17	2%
CC(=O)c1sc(NC(=O)CCN2C(=O)C3CC=CCC3C2=O)nc1-c1ccccc1 (centres undefined)	-1	-0.4	·	-3	-21	6.2	·	3.2	·	-4%
CN1CCN(CCCNC(=O)CCN2C(=O)COc3ccccc32)CC1	-11	-0.5	2	5	6	1.7	-0.1	-3.4	-7	-6%
COc1cccc(OCC(=O)N(C)Cc2nc(-c3cccc(C)c3)no2)c1	2	0.8	9	1	-27	0.9	5.8	1.2	2	·
CCOC(=O)c1cnc(SCC(=O)NNC(=O)c2ccco2)nc1N	-13	1.0	-1	6	9	1.3	?	0.6	-8	·
O=C(Cc1n[nH]c(=O)c2ccccc12)NCc1ccccn1	0	-0.2	6	·	·	·	23*	·	-7	9%
COc1ccc(OCC(=O)Nc2ccccc2-c2ccccc2)cc1	·	0.3	10	-30	-45	-9.5	-3.4	-5.5	24	16%
Cc1ccc(C(C)C)cc1OCCn1cncn1	·	0.1	-11	5	5	1.6	-5.9	-1.6	-10	·
O=C1c2cccnc2C(=O)N1Cc1cccs1	0	-0.3	-4	3	8	-1.8	-2.8	4.1	-4	-1%
O=C(Nc1cccc(C(F)(F)F)c1)Oc1ccc(Cl)c2cccnc12	115*	-0.2	38	-58	-79	-20	9.6	-1.5	69*	0%
COc1ccc(CNC(=O)/C(C#N)=C2\N=C(NC(=O)c3cccs3)c3ccccc32)cc1	9	0.8	36	·	·	·	-0.8	·	3	·
CCOC(=O)C(Cc1ccccc1)NC(=O)CCc1nnc2ccc(N3CCOCC3)nn12 (centres undefined)	-4	-0.7	-19	-2	9	-1.5	-0.4	5.0	-34	6%
Cc1ccc(S(=O)(=O)N2CCN(S(=O)(=O)N3CCOCC3)CC2)cc1C	-12	-0.5	-23	·	·	·	0.5	·	-8	1%
C=CCn1c(SCc2c(C)noc2C)nc2sc3c(c2c1=O)CCCCC3	·	0.9	-2	·	·	·	-0.9	·	0	1%
CCOC(=O)c1oc2ccccc2c1CSc1nnnn1-c1ccccc1	-7	0.3	0	·	·	·	-1.7	·	11	-3%
COc1ccccc1N1CCN(C2CCCN(C(=O)CN3CCCCC3=O)C2)CC1 (centres undefined)	1	0.5	5	14	7	-1.4	7.0	2.5	-7	·
COc1cccc(OCCOc2ccccc2OC(C)C)c1	-6	-0.9	2	·	·	·	-4.7	·	-5	0%
O=C1CN(c2ccccc2)C(=O)N1	-4	0.0	4	8	12	0.1	-2.2	0.8	2	2%
Cc1cc(N(C)C)ccc1N=Nc1ccc(N)cc1	39	-0.5	-7	-51*	-29*	-4.6*	-8.5	23	21	·
Cc1ccc(NC(=O)CN(C)C(=O)c2ccc(Br)o2)cc1	8	0.6	11	7	9	-1.8	-3.2	-0.4	-2	·
Cc1cc(C(=O)OCC(=O)N(C)c2ccccc2)ccc1[N+](=O)[O-]	-10	0.9	5	0	-3	-0.5	-0.3	3.9	-8	2%
CCN(CC)c1ncnc2c1sc1nc(C)cc(C)c12	·	-0.1	3	·	·	·	3.7	·	17	-8%
Cc1ccc(OCc2cc(C(=O)N(CCO)Cc3cccs3)no2)cc1C	-3	0.1	3	-19	-34	-1.1	5.1	0.0	8	·
COCCCNC(=S)N1CCN(c2nc(-c3ccc(F)cc3)cs2)CC1	8	1.6	13	-36	-40	-1.5	0.9	7.5	-24	6%
COc1ccc(C)cc1S(=O)(=O)NC1CC1	-3	-0.8	-9	7	14	-3.1	0.9	1.5	-9	-3%
(listing goes on)
SMILES	Beta cell apopt	Bfl-1 A1 inh	Calb FLC	Ecoli rRNA inh	Ecoli rRNA inh OD600	Ecoli rRNA inh RFP	RanGTP-Imp inh	AF4-AF9 inh	T cruzi repl	Vif A3G
COC(=O)CN1C(=O)C(C)=C(c2ccc(C)cc2)S1(=O)=O	-1	-0.5	45	16	5	-1.0	-0.8	0.9	-11	-1%
COc1cc(C2SCCS2)cc(Br)c1Oc1ncccc1[N+](=O)[O-]	-4	0.7	5	6	6	1.4	3.4	6.8	2	-8%
C=CCNc1nc(Nc2ccc(OC)cc2)nc(OCC)n1	·	-0.3	34	-16	-14	-7.4	-3.3	·	-7	11%
Nc1csnc1C(=O)O	-3	0.8	18	·	·	·	2.3	·	-12	2%
O=C(CCl)NC(Cc1c[nH]c2ccc(OCc3ccccc3)cc12)C(=O)O (centres undefined)	·	0.6	7	-1	-1	-1.2	?	2.2	-13	·
CS(=O)(=O)N(CC(=O)Nc1c(F)cccc1F)c1ccc(C23CC4CC(CC(C4)C2)C3)cc1	-5	0.0	5	·	·	·	?	·	70*	23%
COc1c(C)cc(S(=O)(=O)NCc2ccco2)c(C)c1C	·	1.6	-4	1	-9	-1.3	-0.4	1.8	2	·
C=CCN1N=C(c2ccc(NC(=O)c3ccccc3)cc2)CSC1=O	2	0.2	0	1	-2	-6.8	4.8	-3.2	-6	24%
CCOC(=O)N1CCN(C(=O)C(=O)Nc2sc3c(c2C#N)CC(C)(C)OC3)CC1	-2	-0.9	20	4	10	-0.6	2.6	-3.0	-9	·
CCOC(=O)c1ccccc1Nc1cn(C(C)=O)c2ccccc12	2	0.6	5	·	·	·	3.1	·	-11	13%
COc1cc(/C=C/C(=O)NC(C)C2CC3CCC2C3)cc(OC)c1OC (centres undefined)	3	-1.1	-7	-2	1	0.4	1.2	0.0	10	·
COC(c1ccccc1)c1nc2ccccc2[nH]c1=O (centres undefined)	1	0.6	-8	10	8	-1.3	-0.3	-1.4	-7	-2%
O=C1NC(c2ccc(Br)cc2)Nc2ccccc21 (centres undefined)	4	-2.0	-8	-7	-8	-0.6	-4.8	-5.4	-15	·
O=C(C1=C[C@@H](c2ccccc2)C[C@@H](OCCCCO)O1)N1CCN(Cc2ccc3c(c2)OCO3)CC1	-4	0.6	-12	-5	-8	14	-1.3	3.4&4.6	31	4%
Cc1cc(C)cc(NC(=O)CSCc2cc(=O)n3ccsc3n2)c1	-1	0.0	5	6	4	0.0	-1.4	1.0	5	·
CC(=O)Nc1nc(-c2ccc([N+](=O)[O-])cc2)cs1	-2	0.0	19	8	11	0.9	3.2	-0.2	4	-5%
CN(C(=O)COC(=O)c1cc2ccccc2cc1O)C1CCCCC1	-11	-1.0	·	-8	-29	17	·	-3.0	·	5%
CCC(C)(C)NC(=O)CN(C(=O)c1csnn1)c1ccccc1-c1ccccc1	·	1.7	12	7	10	-1.0	-2.9	0.7	3	1%
Cc1ccc(OCCCC(=O)Nc2ccc3c(c2)OCO3)cc1	-6	0.5	-13	6	13	0.6	-1.8	5.8	15	-1%
COc1ccc(/C=C/c2ccncc2)c2ccccc12	-5	1.0	-19	·	·	·	-4.5	·	3	0%
